AI-2 QS modul: modulates the Vibrio harveyi AI-2 quorum sensing system | 300,000 tested, 0.4% active | activity change, % at 7.5 µM | Vibrio harveyi JMH597 AI-2 luminescence/OD600 ratio, 9 h; stronger effect = lower value; strain lacks LuxN and CqsS sensors; 0 = neutral-control median | AID 2094; in the data active = activity change below about -75%, passing the limit was not always enough;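 note: luminescence divided by OD600 gain over 9 h not by final OD600 alone; inactives centre near 13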
HSP90 inh: inhibitors of HSP90 luciferase refolding in rabbit reticulocyte lysate; inhibition, % at 5.6 µM; luciferase refolding luminescence, 3 h; 290,000 tested, 0.91% active;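 active = inhibition above the screen-wide mean plus 3 SD, computed separately per campaign, cut at about 16% in these data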;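 note: 0% = DMSO wells and 100% = 60 µM geldanamycin wells; inhibitors lower the luminescence because luciferase stays unfolded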
IEC-6 cytotox: IEC-6 cytotoxicity, counter-screen for KLF5 inhibitors; luminescence viability; inhibition, % at 5 µM; 290,000 tested, 0.78% active; AID 1825; in the data active = inhibition above about 22%;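 note: 0% = plate median of test compound wells and 100% = cytotoxic reference compound wells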
GSK3B inh: inhibitors of human GSK3beta kinase; P49841; GST-GSK3beta kinase, ADP-Glo luminescence, 60 min; stronger effect = lower value; 300,000 tested, 0.038% active; activity score (negative = inhibition), % at 10 µM;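 active = more than half of replicate wells score below -50%, meaning over 50% inhibition versus plate controls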;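 note: 0% = median DMSO wells and -100% = median GW8510 positive control wells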
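Test system: GST-fused GSK3beta enzyme, cell-free | Quantity: 1.6 ng GST-GSK3beta enzyme per well | Reagent: 25 µM ATP with peptide substrate | Schedule: 60 min enzyme reaction, room temperature | Signal: Luminescent ADP-Glo measurement of ADP formed | Read-out basis: Score relative to plate controls | Control set: DMSO and 20 µM GW8510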
GSK3A inh: inhibitors of human GSK-3 alpha kinase | P49840 | ADP-Glo luminescence, 60 min | inhibition, % at 10 µM | 320,000 tested, 0.1% active | AID 2650;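 in the data active = inhibition above about 50%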;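 note: GST-tagged GSK-3 alpha with peptide substrate and 25 µM ATP; 0% = DMSO neutral wells and 100% = GW8510 positive control wells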
Target sequence (P49840 whole entry, looked up): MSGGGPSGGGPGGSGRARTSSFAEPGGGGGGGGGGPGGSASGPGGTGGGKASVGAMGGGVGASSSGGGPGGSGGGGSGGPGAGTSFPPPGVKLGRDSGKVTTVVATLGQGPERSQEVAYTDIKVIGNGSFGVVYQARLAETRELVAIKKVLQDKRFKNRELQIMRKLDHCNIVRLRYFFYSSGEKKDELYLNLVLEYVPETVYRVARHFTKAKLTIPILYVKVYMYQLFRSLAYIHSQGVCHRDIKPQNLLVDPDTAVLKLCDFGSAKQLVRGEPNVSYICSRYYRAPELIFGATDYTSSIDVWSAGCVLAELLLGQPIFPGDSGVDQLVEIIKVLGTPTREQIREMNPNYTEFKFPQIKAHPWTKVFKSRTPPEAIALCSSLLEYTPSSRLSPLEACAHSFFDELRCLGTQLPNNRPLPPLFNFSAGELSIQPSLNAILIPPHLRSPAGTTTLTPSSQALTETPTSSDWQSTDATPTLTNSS
An asterisk follows results filed as active; & = joins results of further samples. The list is partial (hit frequency here may not be typical).

1) Nc1ccncc1
2) CCC(=NCc1ccco1)c1c(O)n(Cc2ccccc2)c(=O)[nH]c1=O
3) Cc1nc2ccc(N3CCN(C)CC3)cc2nc1C
4) COC(=O)C1=C(C)NC(C)=C(C(=O)OC)C1c1ccccc1[N+](=O)[O-]
5) CCOc1ccc(-c2c(C)n(-c3ccc(OCC)cc3)c3[n+]2CCCCC3)cc1
assay / compound | 1 | 2 | 3 | 4 | 5
IEC-6 cytotox | -7.2 | -2.1 | 8.2 | 2.9 | 45.1*
GSK3B inh | 1.0 | -1.7 | 3.1 | 2.1 | -2.3
HSP90 inh | 5.7 | -0.4 | 1.8 | 5.5 | 7.5
AI-2 QS modul | 20.5 | 17.0 | -1.5 | 17.8&13.9 | 26.7
GSK3A inh | 2.0 | -1.8 | -3.5 | 3.7 | -1.0

Limited to AI-2 QS modul, for some of the entries so far:
nr	molecule	AI-2 QS modul
1	Nc1ccncc1	20.5
3	Cc1nc2ccc(N3CCN(C)CC3)cc2nc1C	-1.5

A different layout for three compounds above:
Screens in order: IEC-6 cytotox | GSK3B inh | HSP90 inh | AI-2 QS modul | GSK3A inh
2	CCC(=NCc1ccco1)c1c(O)n(Cc2ccccc2)c(=O)[nH]c1=O
  -2.1 | -1.7 | -0.4 | 17.0 | -1.8
3	Cc1nc2ccc(N3CCN(C)CC3)cc2nc1C
  8.2 | 3.1 | 1.8 | -1.5 | -3.5
4	COC(=O)C1=C(C)NC(C)=C(C(=O)OC)C1c1ccccc1[N+](=O)[O-]
  2.9 | 2.1 | 5.5 | 17.8&13.9 | 3.7

Continued.
6) CC/C(=N\NC(=O)c1ccccc1O)c1c(O)n(Cc2ccccc2)c(=O)[nH]c1=O
7) O=c1c2ccccc2nc(/C=C/c2ccc(F)cc2)n1-c1ccccc1O
8) CCn1cc(C(=O)O)c(=O)c2ccc(C)nc21
9) C[C@@H]1O[C@@H](O[C@H]2C[C@@H](O)[C@]3(CO)[C@H]4[C@H](O)C[C@]5(C)[C@@H](C6COC(=O)C6)CC[C@]5(O)[C@@H]4CC[C@]3(O)C2)[C@H](O)[C@H](O)[C@H]1O (some centres undefined)
assay / compound | 6 | 7 | 8 | 9
IEC-6 cytotox | -1.0 | 5.0 | 0.7 | 2.4
GSK3B inh | -0.4 | 7.4 | 3.5&4.4 | 1.9
HSP90 inh | -6.8 | -2.1 | 3.1 | 3.0
AI-2 QS modul | 6.3 | -7.8 | 28.0&7.9 | 21.3
GSK3A inh | -3.7 | -3.8 | -1.7 | -0.9

Source: PubChem BioAssay (several laboratories)
